Assay outcomes deposited in PubChem by Broad Institute.
rRNA inh HTS: inhibits bacterial ribosomal RNA function over humanized ribosomes; GFP signal change (wild-type ribosome), % (no concentration beside the values); 350,000 compounds, 1.6% hits; E. coli WT GFP vs humanized-ribosome RFP mutants, fluorescence, 24 h; stronger effect = lower value; DMSO median 0, no signal -100;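 active = significant combined selectivity score with lowered wild-type GFP, culture density cut under 30%, mutant RFP and density less affected; inactive = any of these conditions unmet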; note: one replicate is shown; some compounds called inactive have numbers as strong as hits
FGF22 binding: FGF22 (human) thermal shift binding; 340,000 compounds, 1.5% hits; recombinant FGF22 thermal shift, SYPRO orange fluorescence; percent of sucrose octasulfate shift, DMSO zero; calls only at 9.99 µM;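 active = melting point raised past a set limit in the mean and every replicate; three in four hits are not shown here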
Target sequence (Q9HCT0 whole entry, looked up): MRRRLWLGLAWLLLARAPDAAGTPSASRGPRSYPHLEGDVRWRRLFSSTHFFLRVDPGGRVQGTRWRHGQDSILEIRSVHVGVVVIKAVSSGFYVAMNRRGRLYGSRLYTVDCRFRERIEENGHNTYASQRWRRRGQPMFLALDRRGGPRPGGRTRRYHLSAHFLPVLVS
rRNA inh HTS OD600: recorded beside rRNA inh HTS, whose call it bears; OD600 change, %; measured here: OD600 growth;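 optical density of the mix in the first replicate; 0 = DMSO median and -100 = no signal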
rRNA inh HTS RFP: further read-out of rRNA inh HTS, marked with its call; RFP signal change, %; measured here: RFP humanized mutant strains;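 first replicate; 0 = DMSO median and -100 = no signal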
Active calls of the source: *; i = inactive; . = not tested or not shown. Some of the compounds tested (hit frequency here may not be typical).

A first look:
rRNA inh HTS OD600	rRNA inh HTS	FGF22 binding	mol	rRNA inh HTS RFP
-0.2	0.2	i	CO[C@@H]1CN(C)C(=O)c2ccc(NC(=O)CC(F)(F)F)cc2OC[C@@H](C)N(C(C)=O)C[C@@H]1C	0.6
-9.1	4.9	i	O=C([C@@H]1[C@@H](CO)[C@@H]2Cn3c(ccc(-c4ccccc4F)c3=O)[C@H]1N2C(=O)C1CCC1)N1CCOCC1	3.2

The whole of this part (from the top)
rRNA inh HTS OD600	rRNA inh HTS	FGF22 binding	mol	rRNA inh HTS RFP
-0.2	0.2	i	CO[C@@H]1CN(C)C(=O)c2ccc(NC(=O)CC(F)(F)F)cc2OC[C@@H](C)N(C(C)=O)C[C@@H]1C	0.6
-9.1	4.9	i	O=C([C@@H]1[C@@H](CO)[C@@H]2Cn3c(ccc(-c4ccccc4F)c3=O)[C@H]1N2C(=O)C1CCC1)N1CCOCC1	3.2
0.3	2.4	i	C[C@H]1CCCCO[C@H](CN(C)Cc2ccc(C(=O)O)cc2)[C@@H](C)CN([C@@H](C)CO)C(=O)c2cc(NC(=O)Cc3ccccc3)ccc2O1	1.6
1.7	-0.8	i	COCC#Cc1cnc2c(c1)C(=O)N([C@@H](C)CO)C[C@@H](C)[C@@H](CN(C)S(=O)(=O)c1ccccc1)O2	-2.0
-1.2	-2.6	i	CC(C)NC(=O)Nc1ccc2c(c1)C(=O)N([C@@H](C)CO)C[C@@H](C)[C@@H](CN(C)C(=O)Nc1ccc3c(c1)OCO3)OCCCC[C@@H](C)O2	0.5
2.2	-1.1	i	C[C@@H]1CN([C@H](C)CO)C(=O)c2cccc(NC(=O)c3ccc(-c4nccs4)cc3)c2O[C@@H]1CN(C)CC1CCCCC1	0.2
-5.4	-1.8	i	C[C@@H]1CN([C@@H](C)CO)C(=O)c2cc(C3=CCCCC3)cnc2O[C@H]1CN(C)C(=O)c1cccc(F)c1	-0.8
3.4	0.0	i	CO[C@@H]1CN(C)C(=O)c2cc(NC(=O)NC(C)C)ccc2OC[C@@H](C)N(C)C[C@H]1C	0.2
6.2	3.2	i	CO[C@H]1CN(C)C(=O)c2cc(NC(=O)C3CC3)ccc2OC[C@H](C)N(CC2CCCC2)C[C@H]1C	-1.8
8.6	3.3	i	COc1ccc2c3c([nH]c2c1)[C@H](CO)NCC31CCN(C(=O)Nc2ccc(F)cc2F)CC1	2.2
-1.6	-4.6	i	Cc1ccc(S(=O)(=O)N(C)C[C@H]2OCCCC[C@H](C)Oc3ccc(NS(=O)(=O)c4ccccc4)cc3C(=O)N([C@H](C)CO)C[C@H]2C)cc1	-0.5
-1.7	1.4	i	C[C@H]1CN([C@@H](C)CO)C(=O)c2c(c3ccccc3n2C)-c2ccccc2CO[C@@H]1CN(C)C(=O)c1ccc(F)cc1	4.5
1.5	4.2	i	CO[C@H]1CN(C)C(=O)c2cc(NC(C)=O)ccc2OC[C@H](C)N(C(=O)Cc2cccnc2)C[C@H]1C	-2.2
0.2	4.2	i	O=C([C@@H]1[C@@H](CO)[C@@H]2Cn3c(cccc3=O)[C@H]1N2C(=O)c1ccccc1)N1CCCCC1	1.8
7.5	2.1	i	C[C@@H]1CN([C@H](C)CO)C(=O)c2cc(NC(=O)Nc3cccc4ccccc34)ccc2O[C@@H]1CN(C)Cc1ccc(Cl)c(Cl)c1	-1.0
5.2	1.4	i	CCC(=O)Nc1ccc2c(c1)OC[C@H](C)NC[C@H](C)[C@@H](OC)CN(C)C2=O	-2.6
10.7	5.4	i	C[C@H](CO)N1C[C@H](C)[C@@H](CN(C)C)Oc2c(NC(=O)C3CCOCC3)cccc2C1=O	-0.9
8.7	2.6	i	C[C@H]1CN([C@@H](C)CO)C(=O)CCCn2cc(nn2)CO[C@H]1CN(C)Cc1cccnc1	-1.7
-2.3	-0.8	i	COCC(=O)Nc1ccc2c(c1)[C@@H]1C[C@@H](CC(=O)N[C@@H](C)c3ccccc3)O[C@@H](CO)[C@@H]1O2	-1.6
5.1	0.0	i	Cc1noc(C)c1S(=O)(=O)Nc1ccc2c(c1)C(=O)N([C@H](C)CO)C[C@H](C)[C@@H](CN(C)C(=O)C1CCCCC1)OCCCC[C@H](C)O2	0.2
-0.8	-0.4	i	COc1ccc(NC(=O)N(C)C[C@H]2Oc3ncc(C#C[C@H](C)O)cc3C(=O)N([C@@H](C)CO)C[C@H]2C)cc1	-1.9
8.3	-0.9	i	C[C@H](CO)N1C[C@H](C)[C@@H](CN(C)C(=O)Nc2cccc3ccccc23)Oc2c(NS(=O)(=O)c3ccc(F)cc3)cccc2C1=O	-0.6
-47.8	-35.2	i	CC(C)CC#Cc1ccc2c(c1)O[C@H](CN(C)Cc1cccnc1)[C@H](C)CN([C@H](C)CO)S2(=O)=O	13.4
-77.7	-51.2	.	C=CCN=C1NC(CCc2ccccc2)C(C(=O)OC)=C(C)N1Cc1cccc(C(F)(F)F)c1 (stereo not drawn)	-15.8
-5.9	1.3	i	COc1ccc2c3c(n(C)c2c1)[C@H](CO)N(C(=O)Nc1ccc(F)cc1)CC31CCN(C)CC1	-2.8

rRNA inh HTS OD600	rRNA inh HTS	FGF22 binding	mol	rRNA inh HTS RFP
0.4	-1.0	i	C[C@@H]1CCCCO[C@H](CN(C)Cc2ccc(C(=O)Nc3ccccc3N)cc2)[C@@H](C)CN([C@H](C)CO)C(=O)c2cc(NS(=O)(=O)c3ccc(Cl)cc3)ccc2O1	-0.4
7.8	-0.6	i	CC(C)NC(=O)N1[C@H](CO)[C@H](c2ccccc2)C12CN(C(=O)c1ccccn1)C2	0.9
-0.6	5.0	i	CC(C)NC(=O)Nc1ccc2c(c1)CC(=O)N([C@@H](C)CO)C[C@H](C)[C@H](CN(C)S(=O)(=O)c1cn(C)cn1)O2	1.4
9.5	8.5	i	Cc1cc(N2CCN(CC(C)(C)O)C[C@H]2C)ccc1N1CCN(CC(C)(C)O)[C@@H](C)C1	1.4
-9.1	-3.3	i	C[C@H](CO)N1C[C@H](C)[C@@H](CN(C)C(=O)Cc2ccccc2)OCCCC[C@H](C)Oc2ccc(NS(=O)(=O)c3ccccc3)cc2C1=O	3.3
3.4	-2.5	i	C[C@H](O)C#Cc1ccc2c(c1)O[C@@H](CN(C)Cc1ccc(-c3ccccc3)cc1)[C@H](C)CN([C@H](C)CO)S2(=O)=O	5.4
2.1	3.7	i	COCC(=O)N(C[C@H]1[C@H](c2ccccc2)[C@H](CO)N1C(=O)NC(C)C)C(C)C	-4.5
3.1	4.4	i	CCCNC(=O)N1C[C@@H]2[C@H](c3ccccc31)[C@@H](CO)N2CC1CCCCC1	0.2
-40.6	-6.6	i	N#C[C@@H]1[C@@H](c2ccc(-c3cccc(F)c3)cc2)[C@@H](CO)N1C(=O)NC1CCCC1	-5.5
4.8	-3.8	i	COC(=O)CC(=O)CC(NS(=O)(=O)c1ccc(C)cc1)c1ccccc1 (stereo not drawn)	1.8
5.5	-4.7	i	CC(C)NC(=O)Nc1cccc2c1O[C@@H](CN(C)S(=O)(=O)c1ccc(Cl)cc1)[C@@H](C)CN([C@H](C)CO)C2=O	-0.1
10.6	1.7	i	CN(C)C(=O)[C@H]1[C@H](CO)[C@H]2Cn3c(ccc(C4=CCCC4)c3=O)[C@@H]1N2CC1CCOCC1	-3.5
9.6	0.9	i	C[C@H]1CN([C@@H](C)CO)C(=O)c2cc(-c3cccc(F)c3)cnc2O[C@H]1CN(C)S(=O)(=O)c1cccc(F)c1	5.5
-4.1	-3.9	i	CCCNC(=O)N[C@@H]1CC[C@@H](CCn2cc(-c3cccc(F)c3)nn2)O[C@H]1CO	1.1
1.9	-2.2	i	C[C@H]1CN([C@@H](C)CO)C(=O)c2cc(N(C)C)ccc2O[C@H]1CN(C)S(=O)(=O)c1ccc(Cl)cc1	1.5
5.8	3.1	i	C[C@@H]1CN([C@H](C)CO)C(=O)Cc2cc(NC(=O)NC3CCCCC3)ccc2O[C@H]1CN(C)S(=O)(=O)c1cn(C)cn1	-3.7
6.7	-0.8	i	C[C@H](CO)N1C[C@H](C)[C@@H](CN(C)C(=O)Cc2ccccc2)Oc2ncc(C#CC3(O)CCCC3)cc2C1=O	1.1
3.1	0.2	i	O=C(Cc1ccccn1)NCC[C@@H]1CC[C@H](NS(=O)(=O)c2ccc(Cl)cc2)[C@H](CO)O1	0.1
-3.8	-3.7	i	C[C@H]1CCCCO[C@@H](CN(C)C(=O)NC2CCCCC2)[C@@H](C)CN([C@@H](C)CO)C(=O)c2cc(NC(=O)c3ccccc3)ccc2O1	2.2
7.9	2.4	i	Cc1noc(C)c1S(=O)(=O)Nc1ccc2c(c1)C(=O)N([C@H](C)CO)C[C@@H](C)[C@H](CN(C)C)O2	-0.8
6.4	2.5	i	O=C(C1CC1)N1C[C@H]2[C@@H](c3ccccc31)[C@@H](CO)N2C(=O)c1ccccc1F	-2.2
1.1	5.3	i	C[C@H](CO)N1C[C@H](C)[C@@H](CN(C)C(=O)NC2CCCCC2)Oc2ccc(NC(=O)C3CC3)cc2CC1=O	0.0
-14.9	2.7	i	COc1cccc(C#Cc2ccc([C@@H]3[C@@H](CO)N4C(=O)CN(C(=O)c5ccccc5)C[C@@H]34)cc2)c1	11.6
-7.8	2.2	i	Cc1ccc(S(=O)(=O)Nc2ccc3c(c2)C(=O)N([C@H](C)CO)C[C@@H](C)[C@@H](CN(C)Cc2ccncc2)OCCCC[C@H](C)O3)cc1	2.5
-0.1	5.7	i	CCCNC(=O)N[C@H]1CC[C@@H](CC(=O)NCCc2ccccc2)O[C@@H]1CO	0.3

rRNA inh HTS OD600	rRNA inh HTS	FGF22 binding	mol	rRNA inh HTS RFP
4.1	2.8	i	O=C([C@@H]1[C@@H](CO)[C@@H]2Cn3c(ccc(-c4cccnc4)c3=O)[C@H]1N2CC1CC1)N1CCCCC1	-1.7
-1.8	-0.5	i	C[C@@H]1CN([C@@H](C)CO)C(=O)c2cc(C#CC3(O)CCCC3)cnc2O[C@H]1CN(C)Cc1ccccc1	-0.2
12.6	0.1	i	CCCNC(=O)N1[C@H](CO)[C@H]2c3ccccc3N(C)C[C@H]21	-2.4
-5.2	1.2	i	COc1ccccc1CN1[C@@H](CO)[C@@H]2c3ccccc3N(C(=O)c3ccc(F)cc3)C[C@@H]21	5.7
-2.6	-4.5	i	O=C(C[C@H]1CC[C@H](NC(=O)c2cccc(F)c2)[C@H](CO)O1)Nc1nccs1	0.7
-7.3	-2.6	i	CCCC(=O)Nc1ccc2c(c1)C(=O)N(C)[C@@H]1CC[C@@H](CC(=O)N3CCc4ccccc4C3)O[C@H]1CO2	0.0
-12.0	-0.7	i	C[C@@H]1CCCCO[C@H](CN(C)S(=O)(=O)c2ccc(Cl)cc2)[C@H](C)CN([C@H](C)CO)C(=O)c2cc(NS(=O)(=O)c3cn(C)cn3)ccc2O1	4.4
-2.3	-3.5	i	Cc1ccc(S(=O)(=O)Nc2cccc3c2O[C@H](CN(C)S(=O)(=O)c2ccc(C)cc2)[C@@H](C)CN([C@@H](C)CO)C3=O)cc1	0.4
16.8	1.2	i	CN(C)C(=O)[C@H]1[C@H](CO)[C@H]2Cn3c(ccc(C4=CCCC4)c3=O)[C@@H]1N2S(=O)(=O)c1cn(C)cn1	-0.2
11.5	5.1	i	C[C@@H]1CN([C@H](C)CO)C(=O)c2cc(Br)cnc2O[C@@H]1CN(C)C(=O)c1cccnc1	0.0
-2.8	-2.4	i	COc1cccc(NC(=O)C[C@@H]2CC[C@H]3[C@@H](COc4ccc(NC(C)=O)cc4C(=O)N3C)O2)c1	-0.6
6.2	0.4	i	O=C(N[C@@H]1CC[C@H](CCn2cc(C3(O)CCCC3)nn2)O[C@H]1CO)C1CCCCC1	-4.5
-14.0	-9.9	i	O=C(C[C@H]1CC[C@@H]2[C@H](COC[C@@H](O)CN2Cc2cc(F)ccc2F)O1)N1CCc2ccccc2C1	0.4
4.1	3.7	i	CN(C)CC#Cc1ccc([C@@H]2[C@H](CO)N3C(=O)CN(C(=O)c4ccc(F)cc4)C[C@@H]23)cc1	1.9
-1.0	1.4	i	CN(C)C(=O)c1ccc(-c2ccc([C@H]3[C@@H](CO)N4CCCCN(CCC(F)(F)F)C[C@@H]34)cc2)cc1	2.6
2.0	0.8	i	Cc1ccc(S(=O)(=O)N(C)C[C@@H]2OCCCC[C@@H](C)Oc3ccc(NC(=O)Nc4ccc(C(F)(F)F)cc4)cc3C(=O)N([C@H](C)CO)C[C@H]2C)cc1	-0.8

Retrieved by compound from above (2):
rRNA inh HTS OD600	rRNA inh HTS	FGF22 binding	mol	rRNA inh HTS RFP
16.8	1.2	i	CN(C)C(=O)[C@H]1[C@H](CO)[C@H]2Cn3c(ccc(C4=CCCC4)c3=O)[C@@H]1N2S(=O)(=O)c1cn(C)cn1	-0.2
12.6	0.1	i	CCCNC(=O)N1[C@H](CO)[C@H]2c3ccccc3N(C)C[C@H]21	-2.4
